Menin MLL FP FL: displaces fluorescein MLL peptide from human menin | Fluorescence polarization, fluorescein-MLL peptide displacement from menin | FP activity change, % at 61.4 µM | 290,000 tested, under 10 active | AID 1766; inconclusive = falling polarisation curve, or a change in total fluorescence; inactive = total fluorescence flat and polarisation flat or rising; no compound was filed as active; the % refers to the polarisation; negative = inhibition;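 also: % of control where 0% means no effect; inhibitors lower the polarisation; unlabelled MLL peptide was the positive control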
gsp ag: activates gsp, the McCune-Albright syndrome mutation; gsp mutant cells, cAMP HTRF, 30 min; control for the full effect not named in the record; Potency, µM (top dose mostly 76.9 µM), for inactives: at the top dose activation (cAMP increase), actives largely listed as activators; 340,000 compounds, 0.13% hits; active = well fitted activation curve with a large enough effect; inconclusive = small, poorly fitted or top-dose-only effect, or another doubt; inactive = no such curve, though single readings can be large or run the other way; cell line not stated here;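 also: phosphodiesterase inhibitor Ro 20-1724 added with compounds to block cAMP breakdown; potency is read from the fitted curve at half-maximal effect; nearly all actives have a fitted effect of over 60% in size; about a fifth of the inactives were tested at one dose only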
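Cells in DMEM/10% FBS with G418 were pretreated with compounds in DMSO plus […] (300 uM stock) for 30 min at 37C. cAMP was measured by HTRF (cAMP-d2 plus anti-cAMP antibody-K) after 30 min at room temperature.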
gsp antag: antagonizes gsp, the McCune-Albright syndrome mutation; gsp-mutant cells, cAMP HTRF, 30 min; control for the full effect not named in the record; Potency, µM (highest dose often 76.9 µM), inactives show at the top dose activity change, negative = inhibition, hits mostly inhibitors; 340,000 compounds, 0.4% hits; active = falling curve of any shape with a large fitted effect; inconclusive = falling curve, mostly with a smaller effect; inactive = flat or rising curve; cell line not stated here;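 also: intracellular cAMP measured with PDE inhibitor Ro 20-1724 present during compound exposure; potency is read from the fitted curve at half-maximal effect; % is scaled to controls: 0 for no effect and ±100 for the full control effect; nearly all actives have a fitted effect of over 65% in size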
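HTRF cAMP read-out (cAMP-d2 plus anti-cAMP antibody-K in lysis buffer, 30 min RT). Before lysis, cells are exposed to compounds with […] for 30 min at 37C in DPBS containing Ca/Mg, BSA and Tween 20.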
TRPML1 blocker: inhibitors of human TRPML1 channel; Q9GZU1; 390,000 compounds, 0.02% hits; activity change, negative = inhibition, % (no concentration beside the values); TRPML1-inducible cells, Ca2+ dye fluorescence, FDSS; hits give low values; inhibition of EC80 agonist-evoked calcium signal; in the data active means activity change below about -50%; inconclusive means about -30% to -50%; inactive means above about -30%;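 also: stimulus is agonist 54-4 at its EC80 concentration; % is scaled to controls: 0 for no effect and ±100 for the full control effect; compound concentration not given in the record; the text of the record puts the active cut at -80%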
Target sequence (Q9GZU1 whole entry, looked up): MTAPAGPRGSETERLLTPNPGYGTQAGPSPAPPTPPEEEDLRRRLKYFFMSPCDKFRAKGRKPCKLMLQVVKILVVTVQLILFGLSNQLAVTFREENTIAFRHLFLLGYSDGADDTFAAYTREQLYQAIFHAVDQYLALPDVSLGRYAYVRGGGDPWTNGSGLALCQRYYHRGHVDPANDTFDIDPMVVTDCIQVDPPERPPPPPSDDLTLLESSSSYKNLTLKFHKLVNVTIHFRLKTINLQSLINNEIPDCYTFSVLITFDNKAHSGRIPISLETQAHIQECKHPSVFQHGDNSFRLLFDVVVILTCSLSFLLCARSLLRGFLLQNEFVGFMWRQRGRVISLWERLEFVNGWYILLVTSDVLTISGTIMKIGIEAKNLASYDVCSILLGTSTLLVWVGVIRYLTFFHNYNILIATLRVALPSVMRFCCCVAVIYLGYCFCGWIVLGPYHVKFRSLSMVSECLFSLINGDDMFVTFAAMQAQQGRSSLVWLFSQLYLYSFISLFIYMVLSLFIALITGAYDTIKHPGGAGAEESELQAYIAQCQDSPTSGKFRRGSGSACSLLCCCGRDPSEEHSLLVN
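Tet-induced TRPML1-DL cells loaded with Ca8 no-wash calcium dye were read kinetically on FDSS. Compound addition was followed by EC80 agonist 54-4 (4 uM final); inhibition was read over 110 s.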
TRPML1 agonist: agonists of human TRPML1 channel; activation, % (concentration not given with the values); 410,000 compounds, 0.12% hits; Q9GZU1; TRPML1-expressing cells, Ca2+ dye fluorescence, FDSS; host cell line not named in the record; reference of the full effect not given here; in the data active = activation above about 50%; inconclusive = about 30% to 50%; inactive = below about 30%; also: 0% is about no effect; the text of the record puts the active cut at 80%
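Agonist activity was taken from a 110 s kinetic Ca2+ dye read on the FDSS after pinning compounds onto TRPML1-DL cells. The cells were seeded at 1,500/well with Tet inducer, incubated about 16 h, then dye-loaded at room temperature.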
ClpP mod: qHTS Assay for Activators of ClpP; ATP-dependent Clp protease proteolytic subunit (Bacillus subtilis (strain 168)), P80244; purified B. subtilis ClpP, FRET peptide cleavage, 20 min; Potency, µM (highest dose often 57.5 µM), inactives show top-dose activity change, negative = active; 340,000 compounds, 1.9% hits; active = well fitted falling curve with a large enough effect; inconclusive = small, poorly fitted or top-dose-only effect; inactive = no such curve, though single readings can be large or run the other way; also: potency is read from the fitted curve at half-maximal effect; the source files actives as falling curves though it sought activators and does not explain the sign; nearly all actives have a fitted effect of over 65% in size; many hits overshoot -100%
Target sequence (P80244 whole entry, looked up): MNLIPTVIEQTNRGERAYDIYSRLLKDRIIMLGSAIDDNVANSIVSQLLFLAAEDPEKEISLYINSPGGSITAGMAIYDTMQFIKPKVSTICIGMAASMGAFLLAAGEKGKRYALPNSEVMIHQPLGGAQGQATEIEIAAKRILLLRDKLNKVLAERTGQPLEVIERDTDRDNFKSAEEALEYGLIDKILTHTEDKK
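Buffer: 100 mM Tris/HCl pH8, 100 mM KCl, 0.05% low protease BSA, 2.5% glycerol, 0.01% Tween-20. ClpP 10 microg/mL final; 20 min RT; delta FRET normalized to ADEP and DMSO controls.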
* hit, by the source's call; ? = inconclusive; · = not tested or not shown; [ ] = remark or other dose.

SMILES	Menin MLL FP FL	gsp ag	gsp antag	TRPML1 blocker	TRPML1 agonist	ClpP mod
Cn1c(SCc2ccc(Br)cc2)nc2c(c1=O)SCC2	3.5	-8.2%[15.4 µM]	-9.9%	48.9	6.0	2.4%
Cc1ccc(S(=O)(=O)N2CCC[C@H]2C(=O)Nc2ccccc2Cl)cc1	·	9.3%	-11.4%	0.6	-0.8	·
C=CCn1c(SCC(=O)c2[nH]c(C)c(C(C)=O)c2C)nnc1-c1ccncc1	15.4	-9.0%	-1.2%	-4.4	0.4	31.6µM*
CCOC(=O)c1ccc(NC(=O)CSc2cn(CC(=O)N3CCCC3)c3ccccc23)cc1	·	·	·	8.9	2.0	-0.7%
COc1cccc(C(=O)c2c(N)c(-c3nc(-c4ccccc4)cs3)c3ccccn23)c1	·	·	·	22.8	1.9	2.2%
O=S(=O)(c1ccccc1)N(Cc1ccccc1)c1ccccn1	0.4	6.0%	5.3%	-9.9	1.0	-1.4%
O=C1CCC(C(=O)N2CCCO2)CN1Cc1cccc(C(F)(F)F)c1 (centres undefined)	4.5	-4.0%	8.1%	-5.8	-0.1	-2.5%
O=C(Nc1nnc(S(=O)(=O)N2CCCC2)s1)c1cccc([N+](=O)[O-])c1	·	?	50.1µM*	-11.4	-0.3	-1.2%
O=C(/C=C/c1ccc(F)cc1)N1CCN(Cc2ccccc2)CC1	·	6.1%	-11.4%	7.6	1.1	0.4%
Cc1cc(C)cc(NS(=O)(=O)c2ccc3[nH]cc(C(=O)NC4CCCCC4)c(=O)c3c2)c1	·	·	·	23.6	3.0	6.6%
Cc1ccc(C)c(C2=CSC3=NCCN23)c1	0.9	?	8.0%	13.5	-0.8	2.3%
O=C(O)C1CCCN1c1ncccn1 (centres undefined)	-0.2	-3.0%	3.8%	-10.7	-0.1	1.2%
CCS(=O)(=O)N1CCN=C1SCc1cccnc1	-1.2	-15.0%	-3.9%	-8.4	0.1	0.6%
Cc1nn(CC(=O)N2CCOCC2)c(C)c1[N+](=O)[O-]	2.8	26.7%	-0.2%	13.9	-0.3	-0.8%
Cc1onc(-c2ccc(Cl)cc2Cl)c1-c1csc(COc2ccccc2)n1	1.6	31.5%	-3.5%	12.7	2.9	·
Cc1cccc([N+](=O)[O-])c1NC(=O)CN(Cc1ccccc1)Cc1ccccc1	4.1	-36.1%[inhibitor]	-13.4%	21.8	-0.6	-1.5%
CCOCCCNC(=O)CCc1ccc(S(=O)(=O)Nc2ccc(C)cc2)cc1	0.2	29.6%[15.4 µM]	·	39.5	1.4	·
COc1ccccc1CC(=O)Nc1ccccc1O	2.7	-13.8%	-0.8%	16.8	2.8	0.5%
CCc1nnc(NC(=O)[C@@H](NC(=O)c2cccc(S(=O)(=O)N(CC)CC)c2)C(C)C)s1	-0.2	31.1%	-6.0%	-6.4	1.9	-1.7%
COc1ccc(OCC(=O)OCC(=O)NCc2ccco2)cc1	-0.5	19.4%	-14.2%	-8.6	-0.8	28.2µM*
COc1ccc([C@@H]2[C@@H]3C(=O)N(C(C)(C)C)C(=O)[C@@H]3[C@]3(C)C(=O)N(c4ccc(C(F)(F)F)cc4)C(=O)N23)cc1	1.4	-16.9%	-7.4%	15.2	0.8	3.8%
COc1ccc(CCN2C(=NC(=O)CCC(=O)O)SC3CS(=O)(=O)CC32)cc1 (centres undefined)	8.5	-38.3%[inhibitor]	9.0%	-17.1	0.5	-1.3%
COc1ccc(C(CCc2ccc(C)o2)NC(=O)Nc2ccc(OC)cc2OC)cc1 (centres undefined)	3.2	-5.4%	12.6%	7.6	3.1	-3.6%
Cc1ccccc1-c1cnn(-c2cccc([N+](=O)[O-])c2)c1N	0.0	1.9%	-8.2%	5.0	-0.3	·
CCOc1ccc(-c2nc(CSCC(=O)N3CCN(c4cccc(OC)c4)CC3)c(C)o2)cc1	3.7	?	39.8µM*	8.4	1.2	-2.1%
CC(C)(C)NC(=O)NC(=O)COC(=O)CCC1CCCCC1	1.7	11.4%	5.9%	-2.3	0.5	1.7%
C=CCOc1cccc(C2C(C(=O)c3ccc(C)o3)=C(O)C(=O)N2CCN(C)C)c1 (centres undefined)	5.7	?	28.4%	4.1	0.0	-13.2%
O=C(Cn1nc(-c2ccccc2)c2ccccc2c1=O)Nc1ccc(F)cc1	0.6	-7.2%[15.4 µM]	-7.2%	-11.0	0.4	-4.1%
Cc1nn(CC(=O)Nc2ccc(OC(F)(F)F)cc2)c(=O)c2c(C)n(-c3ccc(Cl)cc3)nc12	·	·	·	-16.4	0.8	-0.8%
Cc1cc(/C=C(\C#N)C(=O)NCc2ccccc2)c(C)[nH]1	·	-17.5%	·	9.6	0.4	4.1%
O=C(NC1CC1)C1=C[C@@H](c2ccc(Br)cc2)C[C@@H](OCCCCO)O1	0.7	?	-15.6%	-4.6	-0.8	0.7%
Cc1cccc(NC(=O)[C@H](Cc2c[nH]c3ccccc23)NC(=O)[C@@H]2Cc3ccccc3CN2)c1	0.8	·	-1.0%	·	·	-2.9%
O=c1[nH]c2ccc(S(=O)(=O)N3CCCC3)cc2[nH]1	2.4	5.1%	6.2%	-5.7	-0.3	·
CN(C)CCN(C(=O)c1ccc2ccccc2c1)c1nc2c(F)cc(F)cc2s1	1.2	-39.1%[inhibitor]	6.8%	8.0	0.2	-0.3%
CCNC(=O)CSc1nc2ccccc2c(=O)n1-c1cccc(OC)c1	0.5	12.2%[15.4 µM]	·	9.4	0.2	·
O=S(=O)(NC1CC1)c1ccc(S(=O)(=O)N2CCCC(c3nc(-c4cccnc4)no3)C2)cc1 (centres undefined)	2.2	-15.3%	-17.3%	9.0	0.6	0.6%
CC(C)CNC(=S)N(CCCO)Cc1cc2cc3c(cc2[nH]c1=O)OCO3	-1.2	-0.4%[15.4 µM]	0.0%	-1.9	-0.9	-1.3%
CC(=O)Nc1ccc(OCC(O)Cn2c(CO)nc3ccccc32)cc1 (centres undefined)	-0.9	-38.1%[inhibitor]	18.3%	22.2	2.3	2.1%
Cc1noc(C)c1CSCC(=O)Nc1nnc(CC(C)C)s1	·	24.1%	2.6%	32.8	0.2	1.2%
COCCCNC(=O)C1CCC(=O)N1Cc1ccccc1Cl (centres undefined)	0.9	?	1.0%	59.2	-0.8	1.3%
Cc1c(NC(=O)Nc2ccc([N+](=O)[O-])cc2)c(=O)n(-c2ccccc2)n1C	2.0	1.4%	-3.0%	6.0	-0.6	·
O=C(Nc1nc2ccccc2[nH]1)c1ccccc1OC(F)F	2.8	5.0%[15.4 µM]	-1.9%	-10.7	-0.2	·
O=C(c1ccccc1[N+](=O)[O-])n1cnc2ccccc21	0.9	12.1%[15.4 µM]	13.9%	2.9	0.0	·
CC1(C)CCc2cc(-c3ccn(S(=O)(=O)c4ccccc4Cl)n3)ccc2O1	4.9	5.6%[15.4 µM]	-0.2%	-15.2	5.6	·
Cc1c(NC2=CC(=O)CC(C)(C)C2)ccc([N+](=O)[O-])c1C	3.1	-1.7%[15.4 µM]	-8.0%	-10.0	2.5	·
O=C(NCC(c1cccs1)N1CCOCC1)c1cc(S(=O)(=O)N2CCOCC2)ccc1F (centres undefined)	·	28.5%	11.5%	-1.7	0.3	0.9%
O=C(CC(=O)NC1CCCCC1)N/N=C/c1cccc2ccccc12	0.0	3.3%	-2.8%	-1.1	-0.3	-5.0%
Cc1ccc(NC(=O)CCN2CCOCC2)cc1C	-4.5	-14.5%	4.6%	3.0	0.2	0.5%
COc1ccc(OC)c(NC(=O)C2C3CC4OC(=O)C2C4C3)c1 (centres undefined)	0.6	-8.6%	13.4%	-26.2	-0.4	-10.1%
Cc1nc(SCCc2ccccc2)[nH]c(=O)c1C	2.4	-5.2%	3.4%	-2.1	1.3	-3.1%
The listing continues.
SMILES	Menin MLL FP FL	gsp ag	gsp antag	TRPML1 blocker	TRPML1 agonist	ClpP mod
CN(C)CCCN(C(=O)c1cccs1)c1nc2ccc(F)cc2s1	·	·	·	2.0	0.7	1.5%
CCN(CC)c1nc(N2CCOCC2)nc2ccccc12	-1.1	-5.7%	-6.6%	-16.6	1.2	-21.6%
Cc1ccc(C)c(N2CCN(C(c3ccccc3)c3nnc(-c4ccccc4F)o3)CC2)c1 (centres undefined)	·	·	·	-2.4	0.1	-1.6%
Cc1nnc(SCC(=O)N2CCC(Cc3ccccc3)CC2)n(N)c1=O	4.1	5.8%	1.6%	-0.6	0.8	16.5%
O=c1cc(-c2ccccc2Cl)oc2c([N+](=O)[O-])c(O)cc(O)c12	2.6[94.6 µM]	9.4%	-14.5%	16.6	1.4	-0.3%
CCCN(C(=O)COC(=O)CNS(=O)(=O)c1ccc(NC(C)=O)cc1)C1CCS(=O)(=O)C1 (centres undefined)	·	?	14.5%	-3.9	2.1	-1.3%
CC1CN(C(=O)COC(=O)c2cc(=O)[nH]c3ccccc23)CC(C)O1 (centres undefined)	·	-18.6%	·	12.2	-0.2	-4.6%
CC(O)(c1ccccc1)c1ccc2ccccc2n1 (centres undefined)	·	-2.5%	7.7%	11.1	0.5	3.3%
COc1ccc(C(=O)N/N=C(\C)c2cccc(NC(=O)c3ccc(F)cc3)c2)c(OC)c1	·	14.4%[15.4 µM]	-11.4%	15.8	0.9	-7.6%
O=C(OCC(=O)N1CCN(C(=O)c2ccco2)CC1)C1=COCCO1	1.5	7.4%	4.5%	8.5	0.0	-3.1%
CCOc1ccc(C(=O)CCC(=O)NCC(=O)Nc2c(C)cccc2C)cc1	·	2.4%	1.0%	29.2	0.1	-1.2%
CC(=O)c1ccc(C(=O)N(CCN(C)C)c2nc3c(Cl)cccc3s2)cc1	-1.8	17.4%	7.6%	-3.9	0.4	·
COc1ccccc1N(CC(=O)NCCc1ccccc1)C(=O)CCC(=O)Nc1ccccn1	-6.2	-25.9%	-8.0%	-20.0	0.4	·
C=CCNC(=S)NNC(=O)c1ccc(Br)cc1	4.2	9.9%	-17.3%	-2.8	0.7	0.3%
Cc1ccc(NC(=O)c2sc3nc(C)cc(C)c3c2N)cc1	4.5	15.3%[15.4 µM]	?	15.8	-1.0	-3.9%
C(#Cc1ccccc1)C[N+]1(CC#Cc2cccc3ccccc23)CCCC1	-0.8	-13.3%	0.6%	6.3	0.8	-11.1%
COc1ccc(-c2c(C)c3cc(OC(=O)N4CCOCC4)ccc3oc2=O)cc1OC	·	·	·	16.6	1.7	2.1%
COc1ccc(Cl)cc1C(=O)NCCS(=O)(=O)N1CCN(c2ccccc2F)CC1	2.2	-15.7%	-20.8%	-15.6	-0.7	0.3%
CCNc1nc(NCC)nc(N/N=C(\C)c2ccc(OC)cc2)n1	-5.1	-23.1%	-1.7%	3.4	2.3	-2.0%
COc1ccc(Cn2c(=O)c3cccnc3n(Cc3ccc([N+](=O)[O-])cc3)c2=O)cc1	-0.2	19.3%	8.0%	2.7	2.0	-2.8%
O=C(CSc1nnc(-c2ccco2)n1Cc1ccco1)N1CCOCC1	1.0	23.4%	5.9%	-8.1	1.6	0.5%
